Screening data from PubChem BioAssay.
MLL AF4-AF9 inh – inhibitors of human MLL-AF4/AF9 interaction; P42568; AlphaScreen, biotin-AF4 peptide binding to FLAG-AF9; inhibition, % at 10 µM; actives 0.47% (n = 350,000);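 active = every replicate reaching a set inhibition limit, whatever the replicate mean, cut at about 25% in these data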;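 also: 0% = plate neutral control median and 100% = total signal loss; the record names both 10 and 1 µM as test concentration; the first replicate is given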
Target sequence (P42568 whole entry, looked up): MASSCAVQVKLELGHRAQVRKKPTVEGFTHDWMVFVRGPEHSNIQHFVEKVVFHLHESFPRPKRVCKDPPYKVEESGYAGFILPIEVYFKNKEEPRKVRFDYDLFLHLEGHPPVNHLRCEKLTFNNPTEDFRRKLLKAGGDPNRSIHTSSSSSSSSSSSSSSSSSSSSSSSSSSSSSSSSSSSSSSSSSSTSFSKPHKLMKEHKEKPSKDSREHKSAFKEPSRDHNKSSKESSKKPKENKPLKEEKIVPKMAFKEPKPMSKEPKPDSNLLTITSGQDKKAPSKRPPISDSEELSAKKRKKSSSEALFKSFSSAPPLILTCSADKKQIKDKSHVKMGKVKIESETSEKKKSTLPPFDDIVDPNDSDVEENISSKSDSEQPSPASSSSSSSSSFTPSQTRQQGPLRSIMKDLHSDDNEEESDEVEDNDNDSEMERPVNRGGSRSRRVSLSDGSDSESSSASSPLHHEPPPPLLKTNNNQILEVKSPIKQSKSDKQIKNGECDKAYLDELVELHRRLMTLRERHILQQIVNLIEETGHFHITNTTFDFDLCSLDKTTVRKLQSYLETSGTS
Vif TR-FRET – inhibitors of Vif binding to APOBEC3G peptide, primary screen, biochemical, TR-FRET, GST-Vif 1-94, biotin-A3G peptide, dose response retest (AID 1117319); actives 0.57% (n = 260,000); inhibition, %, or IC50 in µM where a hit was titrated; TR-FRET GST-Vif / biotin-A3G peptide binding; higher % means a stronger effect; test concentration not given here; strong numbers were not always called active;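 active = above the screen mean plus three standard deviations and confirmed in dose response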;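 also: Vif residues 1-94 fused to GST binding biotinylated APOBEC3G peptide 110-148; 0% = full assay without inhibitor and 100% = GST in place of GST-Vif; retest series ran down from 100 µM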
* = called active by the depositor; & = joins results of further samples.

SMILES	MLL AF4-AF9 inh	Vif TR-FRET
O=C1/C(=C\c2ccc(O)cc2)CCC1CNc1ccc(Cl)cc1 (centres undefined)	1.8	1.4%
CCCN=C1N(C)C[C@@H]2[C@@H]3C(=O)N(C)C(=O)[C@@H]3[C@](CC)(C(=O)OC)N12	-0.1	-1.4%
CC1=CC(C)(C)NC(=S)N1c1ccc(N(C)C)cc1	9.3	-14.9%
O=C(CN1C(=O)NC2(CCc3ccccc32)C1=O)NCc1ccc(F)cc1 (centres undefined)	-1.7	0.3%
Cc1ccc(Cc2c(-c3ccc(C)cc3)nc3ccc(Cl)cn23)cc1	1.6	0.8%
O=C(CCc1ccccc1)Nc1cc(S(=O)(=O)N2CCOCC2)ccc1N1CCCC1	-0.3	6.3%
CC1CCCN(S(=O)(=O)c2ccc(C(=O)NC(C)c3ccccc3)cc2)C1 (centres undefined)	-0.9	-2.6%
COc1cccc(NC(=O)N(C)C[C@@H]2Oc3cc(Br)ccc3S(=O)(=O)N([C@@H](C)CO)C[C@H]2C)c1	0.8&0.8	-2.9%
CN(CCc1ccccc1)C(=O)c1cccc(NC(=O)Cc2cccc(NC(=O)C3CCCN(C(=O)C4CCCC4)C3)c2)c1 (centres undefined)	-2.7	-6.1%
Cn1c(=O)c(=O)n(C)c2cc(S(=O)(=O)CCC(=O)Nc3ccccc3C(F)(F)F)ccc21	-4.0	-31.1%
N=C1C(c2nc3ccccc3s2)=C(O)CN1NC(=O)c1ccc([N+](=O)[O-])cc1	-0.4	-8.4%
CCCCCCN1C[C@H](n2cc(C3CC3)nn2)[C@@H](O)C[C@@H]1c1ccc(C)cc1	2.3	5.9%
CCCc1nc2ccccc2c(C(=O)N(CC)CC(=O)NCc2cccs2)c1CC	4.5	13.3%
Nc1nc(N)c2cc(S(=O)(=O)c3cccc(C(F)(F)F)c3)ccc2n1	-3.1	-13.6%
CCCCC(=O)c1ccc(OC(=O)c2ccc([N+](=O)[O-])cc2)cc1	7.1	2.3%
CCOC(=O)c1cc(OC(C)=O)c2ccc(OC)c(OC)c2c1	-5.1	2.4%
CC(C)C[C@H]1CNC(=S)N1CC1CCN(CCCC2CCCC2)CC1	2.9	2.4%
COc1cccc(-c2ccc(C3=CC(=O)CC(C)(C)C3=O)cc2)c1OC	16.8	-3.1%
CC(C)=CCC/C(C)=C/CNC(=O)C[C@H]1C[C@H](C(=O)N2CCOCC2)[C@@]2(C)c3[nH]c4ccc(Cl)cc4c3CCN2C1=O	2.2	-2.5%
C[C@@H]1CN([C@H](C)CO)C(=O)c2cc(Br)cnc2O[C@@H]1CN(C)C(=O)NC1CCCC1	-0.4&-4.9	-2.2%
CCCCN1C[C@H](Cc2ccccc2)[C@@H](CC(=O)NC)C1=O	-2.1	-4.7%
CC1CCN(S(=O)(=O)N2CCC(C(=O)NCc3ccc(F)cc3Cl)CC2)CC1	0.6	0.4%
O=C(O)C1Oc2ccccc2C1c1ccccc1 (centres undefined)	0.7	1.6%
CCN(C[C@H]1N[C@@](CC)(C(=O)OC)[C@H]2C(=O)N(C)C(=O)[C@@H]12)S(=O)(=O)c1ccccc1	-0.1	3.9%
Cc1ccc([C@H]2C[C@H](O)[C@@H](n3cc(-c4ccc(F)cc4)nn3)CN2Cc2cccs2)cc1	2.1	-0.4%
CN(Cc1ccccc1)C(=O)c1cccc(NC(=O)Cc2ccc(NC(=O)C3CCN(C(=O)CCc4ccccc4)CC3)cc2)c1	-0.2	-0.9%
CCCCN1CC(COCc2ccccc2)Oc2cccc(Oc3ccc(C)cc3)c2S1(=O)=O (centres undefined)	-0.8	1.1%
CC(C)(C)S(=O)N1Cc2cc(=O)n(Cc3ccccc3)c(CCO)c2[C@H]1CCO (some centres undefined)	0.0	1.8%
COc1cc(C(=O)N2CCN(C3=NS(=O)(=O)c4ccccc43)CC2)cc(OC)c1OC	-0.1	2.0%
COCc1c(C(=O)NCC(c2ccco2)N2CCCC2)oc2ccccc12 (centres undefined)	1.8	2.9%
C[C@@H]1CN(S(=O)C(C)(C)C)[C@H](CCO)/C1=C\CCO (some centres undefined)	-9.4	-5.6%
COc1ccccc1NC(=O)N(C)C[C@H]1OCc2cnnn2CCCC(=O)N([C@@H](C)CO)C[C@H]1C	-2.8&-2.0	-4.0%
C[C@H](CO)N1C[C@H](C)[C@H](CN(C)C(=O)NC2CCCCC2)Oc2ncc(Br)cc2C1=O	0.7&4.8	-1.5%
COc1ccc(C=NNc2ccc([N+](=O)[O-])cn2)cc1	-9.6	2.5%
Cc1ccc(NC(=O)CCc2ccccc2)cc1C	-0.9	-12.1%
CSC(=S)NN=C(C)c1cccc(C)n1	11.7	4.5%
C[C@H](CO)N1C[C@H](C)[C@@H](CN(C)S(=O)(=O)c2ccc(-c3ccccc3)cc2)OCc2cn(nn2)CCCC1=O	-1.2&6.0&-1.3	2.4%
CCc1ccc(C2CC(c3ccc(C)cc3)n3nc(N)nc3N2)cc1 (centres undefined)	-3.5	-1.0%
CC1=CC(=O)C2(C)C(C)=C(C)C12C (centres undefined)	-1.2	-1.8%
CC1=C(C(=O)N2CCOCC2)CC(CC(=O)NCc2ccco2)C(=O)N1CCC1=CCCCC1 (centres undefined)	-1.2	-0.7%
O=C(CCCCC(=O)NN=Cc1ccc2c(c1)CCC2)NN=Cc1ccc2c(c1)CCC2	-3.7	-1.7%
CNC(=O)C[C@H]1C(=O)N(c2ccccc2)C[C@@H]1C	1.0	0.3%
CCN(CC(=O)NCc1cccs1)C(=O)/C=C/c1ccc(F)cc1	-1.0	-2.0%
CCC(CCc1ccccn1)C(=O)c1ccccc1 (centres undefined)	-2.8	-0.5%
O=C(CNc1cccc([N+](=O)[O-])c1)N1CCN(S(=O)(=O)c2ccc(Cl)cc2)CC1	-16.5	-12.1%
Cn1c(=O)oc2cc(S(=O)(=O)N3CCC(C(=O)N4CC=C(c5ccccc5)CC4)CC3)ccc21	1.4	-0.3%
Nc1nc2c(nnn2Cc2ccc(Cl)c(Cl)c2)c(=O)[nH]1	-1.7	-5.0%
CC#CC(=O)N1CCC(n2nccc2NC(=O)CCc2ccccc2)CC1	-4.2	5.8%
CCCCNC(=O)C(C)N(CCN(C)C)C(=O)CCCN1C(=O)NC(c2ccc(Cl)cc2)C(C(=O)OCc2ccccc2)=C1C (centres undefined)	9.2	-0.6%
CCCCCC(=O)N1C[C@H](n2cc(COC(=O)c3ccccc3)nn2)[C@@H](O)C[C@@H]1c1ccc(C)cc1	-3.1	11.9%
O=C(OCN1C(=O)c2ccccc2C1=O)c1cc(S(=O)(=O)N2CCOCC2)ccc1F	-1.0	0.8%
C[C@@H]1CN([C@H](C)CO)C(=O)c2cc(Br)cnc2O[C@@H]1CN(C)C(=O)Nc1cccc(F)c1	0.7&-4.0	4.7%
CN(C(=O)c1cccc(NC(=O)Cc2ccc(NC(=O)C3CCN(C(=O)CCc4ccccc4)CC3)cc2)c1)C1CCCCC1	0.5	0.1%
CC1(C)N=C(N)N=C(N)N1c1ccc(CCCCc2ccccc2)cc1	14.7	-3.2%
Cc1ccc(CN(C)C[C@@H]2OCc3cnnn3CCCC(=O)N([C@H](C)CO)C[C@H]2C)cc1	0.2&1.1	2.6%
Cc1cccc(NS(=O)(=O)c2ccc(C)c(C(=O)N(C)C3CCN(C)CC3)c2)c1	1.0	1.4%
O=C1/C(=C/c2cccnc2)SC(=S)N1Cc1ccco1	-2.0	2.5%
C[C@@H]1CN([C@@H](C)CO)C(=O)c2cc(Br)cnc2O[C@H]1CN(C)C(=O)Nc1ccc(F)cc1	-7.2&-0.1&3.4	3.9%
CC(C)C(=O)Nc1cccc(N2CCN(CCCN3C(=O)C4CCCCN4C3=O)CC2)c1 (centres undefined)	7.6	9.9%
COc1cc(C)c(CN2CCN(C(=O)CCC(=O)c3ccc(C)s3)CC2)cc1OC	-6.9	-8.6%
(next part)
SMILES	MLL AF4-AF9 inh	Vif TR-FRET
N#Cc1ccc(C(=O)N2CCC3CC2c2cc(N4CCCCC4)ccc23)cc1 (centres undefined)	8.3	-2.0%
N#Cc1ccccc1OCC(=O)N1CC(=O)Nc2ccccc21	0.6	10.7%
C[C@@H]1CCCCO[C@H](CN(C)C)[C@H](C)CN([C@@H](C)CO)C(=O)c2cc(NC(=O)Nc3ccc(C(F)(F)F)cc3)ccc2O1	5.4&6.8&2.6	-0.2%
C[C@H](CO)N1C[C@H](C)[C@H](CN(C)S(=O)(=O)c2ccccc2F)OCc2cnnn2CCCC1=O	-1.5&-0.2&-1.0	-2.4%
S=C(c1ccccc1)N1CCN(c2ccccc2)CC1	6.2	3.8%
Nc1cc(=O)nc2cn[nH]n12	0.2	-3.1%
O=C(CC(=O)c1ccccc1)Nc1ccc([N+](=O)[O-])cc1	0.0	-2.5%
COc1ccc(NC(=O)c2cccc3ccccc23)cc1OC	-1.9	-1.8%
CCCCC1SC(N)=NC1=O (centres undefined)	7.2	0.9%
COc1ccc(CN(C)C[C@H]2OCCCC[C@H](C)Oc3ccc(NC(=O)CCC(F)(F)F)cc3C(=O)N([C@@H](C)CO)C[C@@H]2C)cc1	3.2&-0.4	2.2%
O=C(NN=Cc1cccc2ccccc12)C1CC1	4.0	-3.4%
CN(C(=O)COC(=O)c1ccc(Cl)s1)C1(C#N)CCCCC1	-0.4	-0.7%
O=S(=O)(c1ccc(NC(=S)NN=Cc2ccccc2O)cc1)N1CCCCC1	1.6	5.8%
O=[N+]([O-])c1ccc(NN=Cc2ccco2)nc1	1.7	14.3%
COc1ccc(NC(=O)CN(C)C2=NS(=O)(=O)c3ccccc32)cc1Cl	-0.6	-11.5%
CSc1ncccc1C(=O)OCC(=O)N1CC2(C)CC1CC(C)(C)C2 (centres undefined)	-26.9	-1.6%
Cc1cc2oc(=O)cc(-c3ccccc3)c2c(C)c1-c1ccc(C(F)(F)F)cc1	-0.2	3.1%
COc1cc2nncc(SC)c2cc1OC	2.3	-5.5%
O=C(CCNC(=O)c1ccc(Cl)cc1)NNC(=O)c1ccc(F)cc1	-15.8	0.2%
COC(=O)C(CC(=O)c1ccc(Cl)cc1)c1ccccc1 (centres undefined)	-6.7	3.4%

Rewritten as comma-separated lines: 5 of the compounds above
Molecule,MLL AF4-AF9 inh,Vif TR-FRET
C[C@@H]1CCCCO[C@H](CN(C)C)[C@H](C)CN([C@@H](C)CO)C(=O)c2cc(NC(=O)Nc3ccc(C(F)(F)F)cc3)ccc2O1,5.4&6.8&2.6,-0.2%
O=C(NN=Cc1cccc2ccccc12)C1CC1,4.0,-3.4%
O=[N+]([O-])c1ccc(NN=Cc2ccco2)nc1,1.7,14.3%
C[C@H](CO)N1C[C@H](C)[C@H](CN(C)S(=O)(=O)c2ccccc2F)OCc2cnnn2CCCC1=O,-1.5&-0.2&-1.0,-2.4%
O=S(=O)(c1ccc(NC(=S)NN=Cc2ccccc2O)cc1)N1CCCCC1,1.6,5.8%

(further entries)
SMILES	MLL AF4-AF9 inh	Vif TR-FRET
CCC/C=C/c1ccc(CN2C(C(C)C)C(=O)N(Cc3cn(CCC4OCCO4)nn3)CCS2(=O)=O)cc1 (centres undefined)	5.4	-1.6%
C[C@H](CO)N1C[C@H](C)[C@H](CN(C)C(=O)Nc2ccc(N3CCN(C)CC3)cc2)OCc2cnnn2CCCC1=O	-1.8	-0.9%
Cc1ccc(C(=O)NCC(=O)OCc2nc3ccsc3c(=O)[nH]2)cc1C	-3.3	-9.4%
C=CCN1C(=O)C(=Cc2ccc3c(c2)CCC3)SC1=S	11.0	-2.3%
O=C(Cc1cccc(NC(=O)C2CCCN(C(=O)C3CCC3)C2)c1)Nc1ccc(C(=O)N2CCCCC2)cc1 (centres undefined)	2.7	2.8%
NC(=O)C(C1=CCCCC1)c1ccccc1 (centres undefined)	-0.5	-5.2%
Cc1ccc([C@@H]2C[C@H]3[C@@H](CN2S(=O)(=O)c2ccc(Cl)cc2)C(=O)C[C@@H](c2ccccc2F)N3S(=O)(=O)c2ccc(C)cc2)cc1	0.5	-3.1%
CCC1(CC)C(=O)N(c2ccccc2)C(=N)N(c2ccccc2)C1=O	0.5	0.2%
C(=NNc1nnn(Cc2ccccc2)n1)c1ccccc1	-1.2	-3.2%
CC[C@]1(C(=O)OC)[C@H]2C(=O)N(C)C(=O)[C@H]2[C@H]2CN=C(SCc3ccc(C(=O)OC)cc3)N21	-0.7	-0.1%
O=C1NC(Cc2ccccc2)c2nc3ccc(F)cc3c(=O)n2-c2cc3ccccc3cc21 (centres undefined)	0.2	-7.2%
N#CCC(=O)Nc1ccc(C(=O)OCC(=O)Nc2sc3c(c2C#N)CCCC3)cc1	-2.4	1.4%
CC[C@]12c3[nH]c4ccc(Cl)cc4c3CCN1C(=O)[C@@H](CC(=O)NCCN1CCOCC1)C[C@@H]2C(=O)N1CCN(C(=O)C2CC2)CC1	-0.4	-0.1%
CC1(C2CCCC2)NC(=O)NC1=O (centres undefined)	-5.0	-9.4%
Cc1cc(OCC(=O)OCC(=O)NC2CCS(=O)(=O)C2)ccc1Cl (centres undefined)	0.6	2.0%
Cc1ccc(C(=O)NCC(=O)N(C)Cc2ccccc2C)s1	-4.8	-1.3%
CSCCC(NC(=O)c1ccco1)C(=O)NCCc1ccc(Cl)cc1 (centres undefined)	-9.9	-15.8%
OC(COc1ccc(-c2ccccc2)cc1)CN1CCCCC1 (centres undefined)	4.3	-4.2%
O=S(=O)(Nc1cccc2ncccc12)c1cccc(C(F)(F)F)c1	-4.9	1.9%

Whole records from above. Screens in order: MLL AF4-AF9 inh, Vif TR-FRET
OC(COc1ccc(-c2ccccc2)cc1)CN1CCCCC1 (centres undefined) as listed: 4.3, -4.2%
CCC/C=C/c1ccc(CN2C(C(C)C)C(=O)N(Cc3cn(CCC4OCCO4)nn3)CCS2(=O)=O)cc1 (centres undefined) as listed: 5.4, -1.6%
CSCCC(NC(=O)c1ccco1)C(=O)NCCc1ccc(Cl)cc1 (centres undefined) as listed: -9.9, -15.8%
C(=NNc1nnn(Cc2ccccc2)n1)c1ccccc1 as listed: -1.2, -3.2%

This is a subset; the hit share may differ from the screen's.
